Mtb growth = Mycobacterium tuberculosis H37Rv growth inhibition, cell based, confirmatory dose response (AID 1949); most inactive calls were filed without a number and no value below 0 was filed; one-dose inhibition, % at 10 µg/mL; IC50 in µg/mL for titrated hits; 100,000 compounds, 1.6% hits;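 active = confirmed in a dose series; inconclusive = about 50% or more but not retested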;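 note: bacteria grown 7 days with compound before Alamar blue readout; 0% = untreated bacteria and 100% = reference antibiotic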
* = called active by the depositor; i = inactive; ? = inconclusive. Only part of the results is shown. The share of hits here may be higher or lower than overall.

Sample of the layout (6 entries):
SMILES	Mtb growth
Cc1ccc(N2CCN(CC(O)COC3CCCCC3)CC2)cc1 (stereo not drawn)	4%
Cc1nc2c(o1)NC(N)=C(C#N)C21CCOC1C (stereo not drawn)	i
Cc1ccc(C(=O)NC(=S)Nc2nc(-c3ccc(Br)cc3)cs2)c(Cl)c1	i
COCc1nnc(NC(=O)c2cccc(F)c2)s1	i
O=C(Nc1ccc(C(=O)N2CCOCC2)cc1)c1ccc([N+](=O)[O-])cc1	i
Cc1ccccc1NC(=O)C(=O)NC(C)c1ccccc1 (stereo not drawn)	0%

All compounds of this part, previewed entries included:
SMILES	Mtb growth
Cc1ccc(N2CCN(CC(O)COC3CCCCC3)CC2)cc1 (stereo not drawn)	4%
Cc1nc2c(o1)NC(N)=C(C#N)C21CCOC1C (stereo not drawn)	i
Cc1ccc(C(=O)NC(=S)Nc2nc(-c3ccc(Br)cc3)cs2)c(Cl)c1	i
COCc1nnc(NC(=O)c2cccc(F)c2)s1	i
O=C(Nc1ccc(C(=O)N2CCOCC2)cc1)c1ccc([N+](=O)[O-])cc1	i
Cc1ccccc1NC(=O)C(=O)NC(C)c1ccccc1 (stereo not drawn)	0%
Cc1occc1C(=O)Nc1ncccn1	i
CC1(C)Cc2c(c(N3CCOCC3)nc3sc(C(=O)N4CCOCC4)c(N)c23)CO1	i
Cc1ccc(S(=O)(=O)/N=C(\Nc2ccccn2)c2ccc(Cl)cc2)cc1	i
Cc1ccc2[nH]c(O)c(N=NC(=O)c3cccc(O)c3)c2c1	i
CCCCC(=O)Nc1ccc(NC(=S)NC(=O)c2ccc([N+](=O)[O-])cc2)cc1OC	i
CCOc1ccc(N(CC(=O)N2CCOCC2)S(=O)(=O)c2ccc(OC)c(OC)c2)cc1	i
CCOC(=O)C1=C(C)NC(=S)NC1c1ccc(OC(=O)c2ccco2)cc1 (stereo not drawn)	i
CCC(=O)Nc1ccc(Cl)c(NC(=O)c2ccc(-c3ccccc3)cc2)c1	1%
CC(C)(C)NS(=O)(=O)c1ccc(NC(=O)CCCc2ccccc2)cc1	i
CCCCNc1ncc2cc3ccccc3nc2c1C#N	16%
Nc1cc(N)nc(SCC(=O)Nc2ccc(S(N)(=O)=O)cc2)n1	i
Cc1ccnc(NC(=O)C2COc3ccccc3O2)c1 (stereo not drawn)	i
CCOC(=O)c1c(-c2ccc(C)cc2)csc1NC(=O)c1cc2ccccc2oc1=O	?
COc1ccccc1C(=O)NCCOc1cc(C)cc(C)c1	18%
CC(C)c1nnc(NC(=O)CS(=O)(=O)Cc2ccccc2)s1	i
COc1ccc(Cl)cc1NC(=O)COc1ccccc1[N+](=O)[O-]	2%
Cn1c(=O)n(C)c2cc(CNc3ccc(N4CCOCC4)c(C(=O)O)c3)ccc21	i
COc1ccc(S(=O)(=O)N2CCOCC2)cc1I	i
CCc1ccc2occ(CC(=O)Nc3nc4ccc(S(C)(=O)=O)cc4s3)c2c1	i

(next part)
SMILES	Mtb growth
CCOc1ccccc1NC(=S)NCc1ccco1	i
CCOC(=O)CCC(=O)Nc1ccc(S(=O)(=O)N(C)Cc2ccccc2)cc1	0%
Cc1cc(=O)oc2cc(NC(=S)NC3CCCc4ccccc43)ccc12 (stereo not drawn)	i
COc1ccc([N+](=O)[O-])cc1NC(=O)COc1ccc(Br)cc1C(C)(C)C	i
COc1ccc(OC)c(NC(=O)CN(c2cc(Cl)cc(Cl)c2)S(=O)(=O)c2ccccc2)c1	i
COc1cccc(-c2n[nH]c(=S)n2Cc2ccco2)c1OC	i
CC12CCC(C(=O)Nc3ccncc3)(C(=O)C1=O)C2(C)C (stereo not drawn)	i
Cc1ccc(O)c(NC(=O)COc2ccccc2Cl)c1	i
Cc1ccccc1Cn1ccc(NC(=O)c2cnn3c(C(F)F)cc(C4CC4)nc23)n1	i
O=C(Nc1ccc(S(=O)(=O)Nc2nccs2)cc1)C(c1ccccc1)c1ccccc1	i
Cc1ccc(-c2nc(CSc3nc(C)c(C)c(=O)[nH]3)no2)cc1	i
Cc1ccc(-c2csc3ncnc(NCCC(=O)O)c23)cc1	3%
CCOc1ccc(C(=O)CC2(O)C(=O)N(Cc3ccccc3C)c3ccccc32)cc1 (stereo not drawn)	1%
Cc1sc2ncnc(SCC(=O)Nc3nsc(-c4ccccc4)n3)c2c1C	36%
O=C(CNS(=O)(=O)c1cc(Cl)ccc1Cl)Nc1ccc(Br)cc1F	1%
Cc1ccc(N(CC(=O)Nc2cccnc2)S(=O)(=O)c2ccccc2)cc1Cl	2%
COc1cccc(NC(=S)/N=C(/Nc2ccccc2)c2ccc(C)cc2)c1	1%
CCOC(=O)c1[nH]c(C=O)c(Br)c1C	i
CCOCCc1nnc(NC(=O)CCSc2ccccc2)s1	i
Cc1cc(OCC(=O)N2CCC(C(N)=O)CC2)cc(C)c1Cl	i
O=C(NCCSCc1c(Cl)cccc1Cl)c1ccc(CN2CCOCC2)cc1	1%
C=C(C)Cn1c(SCC(=O)Nc2nccs2)nc2sc3c(c2c1=O)CCC3	1%
CCCCc1ccc2nc(NC(=O)c3ccco3)sc2c1	i
Cc1cc(I)ccc1NC(=O)C(C)Sc1ccc(Cl)cc1 (stereo not drawn)	i
S=C(NCCc1ccccc1)NC1CCCC1	i

Continuation.
SMILES	Mtb growth
COc1ccc(CCNC(=O)c2ccc(COc3ccc4c(c3)CCC4)o2)cc1	i
O=C(Nc1ccc(S(=O)(=O)N2CCN(c3ccccc3)CC2)cc1)c1cccs1	i
CCOc1ccccc1N(CC(=O)Nc1cccc([N+](=O)[O-])c1)S(=O)(=O)c1ccc(Cl)cc1	i
C=C(C)COc1ccc2c(=O)c(Oc3ccc(OC)cc3)coc2c1	i
Cc1ccc(C)c(S(=O)(=O)N2CCN(c3cc(Cl)ccc3C)CC2)c1	9%
COC(=O)CN(c1cccc(C)c1)S(=O)(=O)c1ccccc1	i
O=C(Nc1ccccc1)Nc1ccc(S(=O)(=O)N2CCCCC2)cc1	i
COc1cc(SC)ccc1C(=O)Nc1ccc(Cl)c(Cl)c1	5%
NS(=O)(=O)c1ccc(NC(=S)Nc2ccc(Br)c(Cl)c2)cc1	?
O=C(Nc1ccc(S(=O)(=O)N2CCCCCC2)cc1)C1CCCO1 (stereo not drawn)	i
CC(NC(=O)c1ccccc1NC(=O)CSCc1ccccc1Cl)c1ccccc1 (stereo not drawn)	i
CNC(=S)N1CCN(c2cc(Cl)ccc2C)CC1	4%
C=CCc1ccccc1OCCCCN1CCOCC1	i
Nc1nnc(SCC(=O)Nc2ccc3c(c2)OCCO3)s1	1%
COC(=O)c1c(NC(=S)Nc2cccc(C(=O)NCc3ccccc3)c2)sc(C(=O)N(C)C)c1C	i
NC(=O)c1ccccc1CCc1ccccc1	i
CCC(C)c1ccccc1NC(=O)C1CCCO1 (stereo not drawn)	i
Cn1c(CNC(=O)c2ccccc2F)nnc1SCC(=O)c1ccc(Br)cc1	i
O=C(CSc1nc2ccccc2[nH]1)c1ccccc1	11%
O=C(CC(NC1CCCC1)C(=O)O)Nc1ccc(F)cc1 (stereo not drawn)	i
CCn1cc(CN(C)C(=S)Nc2ccc(S(=O)(=O)Nc3ncccn3)cc2)c(C)n1	i
O=C(c1cc2cc(Cl)cc(Cl)c2oc1=O)N1CCN(c2cccc(C(F)(F)F)c2)CC1	i
COc1cccc2cc(CC(=O)c3ccc(Br)cc3)c(=O)oc12	i
O=C(OCc1c(F)cccc1Cl)c1cc2ccccc2oc1=O	i
COc1ccc(C(=O)Nc2ccncc2)c(OC)c1	2%

More results follow.
SMILES	Mtb growth
Cc1cc2ccccc2n2c(SCC(=O)NCCc3ccccc3)nnc12	i
CC(=O)Nc1nnc(SCC(=O)Nc2cccc(Cl)c2C)s1	i
Cc1ccc(S(=O)(=O)Nc2ccc(C)c(Br)c2)cc1	i
COc1cccc(CN2CCC(C(=O)N(CCc3ccccc3)Cc3ccccc3)CC2)c1O	2%
CCCC(=O)N1CCN(c2ccc(NC(=O)c3ccc(Br)cc3)cc2)CC1	0%
CC(C)(C)NC(=O)COc1ccc2ccccc2c1Br	11%
CCc1nc(SCC(=O)Nc2cccc(Cl)c2)n[nH]1	2%
COc1cccc(OCCOc2cc(Cl)ccc2Cl)c1	i
Cn1c(CCNC(=O)c2cccs2)nnc1SCC(=O)Nc1nc(-c2ccccc2)cs1	i
O=C(CCC1CCCCC1)Nc1nnc(Cc2ccc(Cl)cc2)s1	i
O=C(c1ccc2c(c1)OCO2)N(Cc1ccccc1)Cc1ccccc1	i
COc1ccc(S(=O)(=O)N2CCN(Cc3ccccc3)CC2)cc1Br	i
CCC(C(=O)NCc1ccccc1Cl)c1ccccc1 (stereo not drawn)	7%
O=C(COc1ccc2ccccc2c1Br)N1CCCc2ccccc21	7%
COC(=O)Nc1nnc(-c2ccncc2)s1	i
CC(Oc1ccccc1F)C(=O)N1CCN(Cc2ccccc2)CC1 (stereo not drawn)	i
N#Cc1cc(-c2nc3ccccc3[nH]2)c(N)n2c1nc1ccccc12	12µg/mL*
COc1cccc(S(=O)(=O)Nc2ccc(C(=O)Nc3ccc4c(c3)OCCO4)cc2)c1	i
CCC(C)NS(=O)(=O)c1ccc(NC(=O)Cc2ccc(OC)cc2)cc1 (stereo not drawn)	i
COC(=O)c1cccc(C)c1OCc1ccc([N+](=O)[O-])cc1	i
CC1(C)C(=O)OC(c2cccs2)C2(CCCCC2)C1=O (stereo not drawn)	i
CC(=O)Nc1c(=O)[nH]n2c(C)cc(C)nc12	i
CCOc1cc(/C=C2/C(=N)N3C=CSC3=NC2=O)cc(Br)c1OC(=O)c1ccco1	i
Cc1nc(Sc2ccc(Cl)cc2)c2ccsc2n1	4%
Cc1ccc(C(=O)NCC2CCCO2)o1 (stereo not drawn)	i

Nothing new here: 4 of the compounds above.
SMILES	Mtb growth
CC(=O)Nc1c(=O)[nH]n2c(C)cc(C)nc12	i
CCOc1cc(/C=C2/C(=N)N3C=CSC3=NC2=O)cc(Br)c1OC(=O)c1ccco1	i
Cc1nc(Sc2ccc(Cl)cc2)c2ccsc2n1	4%
Cc1ccc(C(=O)NCC2CCCO2)o1 (stereo not drawn)	i

(continued)
SMILES	Mtb growth
CCc1ccccc1N(CC(=O)Nc1cccc(F)c1)S(=O)(=O)c1ccc(C)cc1	6%
COc1ccc(S(=O)(=O)N(CC(=O)NCCSC(C)(C)C)c2ccccc2)cc1	3%
O=[N+]([O-])c1cccc(NC(=S)N2CCN(c3cccc(C(F)(F)F)c3)CC2)c1	i
CCOc1ccccc1-c1nc(SCc2ccc(OC)c(Br)c2)n[nH]1	i
O=Cc1cn(CC(=O)Nc2ccc3c(c2)OCO3)c2ccccc12	i
Cc1ccc2c(c1)C(=O)CC(c1ccccc1Cl)O2 (stereo not drawn)	i
Cc1cc(OCC(=O)Nc2ccccc2CO)cc(C)c1Br	i
O=C(O)c1ccc(CSc2nnc(-c3ccncc3)n2-c2ccc(Cl)cc2)cc1	i
CN(C)c1ccc(Nc2nc(-c3ccc(O)cc3O)cs2)cc1	1.5µg/mL*
O=C(CN1C(=O)c2cccc3cccc1c23)Nc1cccc(Cl)c1	i
COC(=O)c1ccccc1-c1ccc(/C=C/[N+](=O)[O-])o1	?
O=C(CSCCO)Nc1cc(C(F)(F)F)ccc1Cl	i
O=C(CSc1nnnn1-c1ccccc1)NC1CCCCCC1	3%
Cc1[nH]n(-c2cccc(Cl)c2)c(=O)c1/C=C1\C=NN=C1c1ccccc1	i
CCOc1ccccc1NC(=S)Nc1cccc(OC)c1	i
COc1ccccc1N1CCN(C(=O)CCc2ccc(S(=O)(=O)NCC(C)C)cc2)CC1	i
COc1ccc(OC)c(NC(=S)NCc2ccc(Cl)cc2)c1	i
O=C(CCCOc1ccc(Cl)cc1Cl)NCC(=O)c1ccccc1	i
OC1CCN(C(=S)Nc2ccc(Nc3ccccc3)cc2)CC1	i
Cc1cc(=O)[nH]c(SC(C)C(=O)Nc2cccc(Cl)c2)n1 (stereo not drawn)	i
O=C(NC(=S)Nc1nc2ccc(F)cc2s1)c1ccc2c(c1)OCO2	i
C=CCn1c(SCC(=O)NC2CCCCC2)nnc1-c1cccc(Br)c1	i
COC1c2cccc3cccc(c23)C1NS(C)(=O)=O (stereo not drawn)	i
CC(=O)COc1ccc2c(-c3cccc([N+](=O)[O-])c3)cc(=O)oc2c1	i
CC(=O)Oc1ccc2oc(=O)c(-c3ccc(Br)cc3)c(C)c2c1	i

Continued:
SMILES	Mtb growth
CCCCc1cc(=O)oc2cc(OCc3c(F)cccc3F)ccc12	5%
COc1ccc2c(=O)c(-c3ccccc3Cl)coc2c1	4%
CNC(=O)C1=C(C)NC(=S)NC1c1ccc(OC)c(Br)c1 (stereo not drawn)	i
COC(F)(C(=O)N1CCOCC1)C(F)(F)F (stereo not drawn)	i
CCn1c(CNC(=O)c2cccc(C)c2)nnc1SCC(=O)Nc1nc(C)cs1	3%
Cc1ccccc1C(=O)N1CCN(c2ccc(NC(=O)c3ccc(C(C)(C)C)cc3)cc2)CC1	39%
COCCNCCOc1ccc(Cl)cc1Br	i
COc1c(Cl)cc(Cl)cc1C(=O)Nc1ccccc1OC(F)F	i
CCn1c(CC(=O)Nc2ccccc2)nnc1SCC(=O)Nc1ccccc1C(=O)OC	i
Cc1ccc(S(=O)(=O)N2CC(C)N(S(=O)(=O)c3ccc(C)cc3)CC2C)cc1 (stereo not drawn)	i
Cc1ccc(NC(=S)NCCN2CCOCC2)cc1F	i
